# Assay outcomes (PubChem BioAssay)
# MLL AF4-AF9 inh = MLL-AF4/AF9 protein interaction inhibition. 350,000 compounds, 0.47% hits. AlphaScreen, biotin-AF4 peptide binding to FLAG-AF9. P42568. inhibition, % at 10 µM;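 active = every replicate reaching a set inhibition limit, whatever the replicate mean, cut at about 25% in these data; inconclusive = mean inhibition reaches that limit but some replicates miss it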;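 also: 0% = plate neutral control median and 100% = total signal loss; the record names both 10 and 1 µM as test concentration; the first replicate is given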
# Target sequence (P42568 whole entry, looked up): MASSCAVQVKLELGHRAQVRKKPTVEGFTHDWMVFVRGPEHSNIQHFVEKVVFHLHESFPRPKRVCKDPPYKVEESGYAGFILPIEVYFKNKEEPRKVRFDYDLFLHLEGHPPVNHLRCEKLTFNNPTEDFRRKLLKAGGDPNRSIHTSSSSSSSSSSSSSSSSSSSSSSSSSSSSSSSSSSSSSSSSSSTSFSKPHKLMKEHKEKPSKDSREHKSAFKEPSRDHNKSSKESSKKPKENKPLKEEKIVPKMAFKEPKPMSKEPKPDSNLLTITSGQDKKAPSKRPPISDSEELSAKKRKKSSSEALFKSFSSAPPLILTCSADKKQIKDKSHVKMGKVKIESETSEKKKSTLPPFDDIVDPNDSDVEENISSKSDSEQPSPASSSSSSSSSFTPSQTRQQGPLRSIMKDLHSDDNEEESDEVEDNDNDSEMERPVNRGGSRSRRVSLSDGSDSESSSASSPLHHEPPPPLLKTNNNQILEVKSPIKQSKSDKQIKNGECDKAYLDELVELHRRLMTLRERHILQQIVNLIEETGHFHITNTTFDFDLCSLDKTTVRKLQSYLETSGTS
# T cruzi inh = blocks replication of Trypanosoma cruzi. T. cruzi beta-gal in NIH3T3, luminescence, 90 h. inhibition, % (concentration not given with the values). 300,000 compounds, 1.4% hits;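 active = mean inhibition across valid replicates above about 55%, limit read from the data; inconclusive = mean below that limit but half or more replicates reach it; inactive = mean below it, under half of replicates reach it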;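 also: signal also drops with host cell toxicity which is not excluded here; 0% = plate median of DMSO wells and 100% = zero luminescence signal; higher percent means less beta-gal luminescence so fewer parasites; stock transfer was 50 nL into about 50 µL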
# Calb FLC = affects C. albicans growth with fluconazole | 300,000 compounds, 0.57% hits | C. albicans CaCi-2 (fluconazole-resistant clinical isolate) + fluconazole, Alamar Blue growth, 48 h | growth inhibition, % (test concentration not listed);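 active = most replicates above 75%; inconclusive = exactly half above 75%; inactive = most below 75%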;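 also: all wells also contain fluconazole at 8 µg/ml as a sub-toxic cotreatment; 0% = median of DMSO wells and 100% = median of geldanamycin control wells; wells of about 8 µL received 7.5 nL stock; the first replicate is given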
# ALR inh = human ALR oxidase inhibition via reduced H2O2; P55789; purified ALR, DTT oxidation, H2O2 HRP-luminol luminescence; inhibition, % (test concentration not listed); 290,000 compounds, 3.8% hits; AID 485317;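 active = mean and each replicate at 75% or more; inconclusive = only one of the two met; inactive = neither met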;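 also: stock transfer was 7.5 nL into about 7.5 µL; 0% = neutral wells and 100% = wells with inactivated enzyme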
# Target sequence (P55789 whole entry, looked up): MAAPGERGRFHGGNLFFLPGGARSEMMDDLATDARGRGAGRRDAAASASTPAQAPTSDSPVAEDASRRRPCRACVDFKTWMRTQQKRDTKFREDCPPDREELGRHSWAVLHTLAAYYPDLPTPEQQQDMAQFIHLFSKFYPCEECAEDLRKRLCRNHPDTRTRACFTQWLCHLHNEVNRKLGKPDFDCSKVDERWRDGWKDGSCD
# Ecoli rRNA inh = selective bacterial rRNA inhibition in E. coli; E. coli WT GFP vs humanized-ribosome RFP mutants, fluorescence, 24 h; stronger effect = lower value; DMSO median 0, no signal -100; GFP signal change (wild-type ribosome), % (no concentration beside the values); 350,000 compounds, 1.6% hits;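 active = significant combined selectivity score with lowered wild-type GFP, culture density cut under 30%, mutant RFP and density less affected; inactive = any of these conditions unmet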; also: one replicate is shown; some compounds called inactive have numbers as strong as hits
# FGF22 binding = FGF22 (human) thermal shift binding. Q9HCT0. recombinant FGF22 thermal shift, SYPRO orange fluorescence; percent of sucrose octasulfate shift, DMSO zero. calls only at 9.99 µM. 340,000 compounds, 1.5% hits. AID 651658;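 active = melting point raised past a set limit in the mean and every replicate; inconclusive = no clear call; three in four hits are not shown here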
# Target sequence (Q9HCT0 whole entry, looked up): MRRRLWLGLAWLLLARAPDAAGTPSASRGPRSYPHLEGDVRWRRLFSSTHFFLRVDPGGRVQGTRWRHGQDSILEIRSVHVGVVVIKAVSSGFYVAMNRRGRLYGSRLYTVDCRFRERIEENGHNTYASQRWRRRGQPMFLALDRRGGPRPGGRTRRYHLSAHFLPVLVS
# Beta cell apopt = beta cell apoptosis inhibition; INS-1E cytokine-induced death, ATP luminescence, 48 h; percent of positive-control rescue, neutral wells zero; protection from apoptosis, % (concentration not given with the values); 300,000 compounds, 0.8% hits; AID 435005;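 active = all replicates at 75% or more, or half of them and the mean; inconclusive = half reach 75% but not the mean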;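 also: 0% = cytokine-treated negative control wells and 100% = positive control rescue; higher means more ATP so stronger rescue from cytokine killing; wells of about 40 µL received 100 nL stock; the first replicate is given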
# RanGTP-Imp inh = disruptors of Ran-importin-beta complex formation – biochemical, FRET, CFP-Ran, YFP-importin-beta, homogeneous, primary screen; cell-free CFP-Ran/YFP-importin-beta FRET ratio; inhibition, % (no concentration beside the values); 300,000 compounds, 1.1% hits;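 active = most replicates above 15%; inconclusive = exactly half above 15%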;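 also: 0% = DMSO wells and 100% = Ran loaded with GDP instead of GTP; wells of about 40 µL received 100 nL stock; the first replicate is given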
# Ecoli rRNA inh OD600 = second read-out of Ecoli rRNA inh, no call of its own (marks repeat the call); OD600 change, %; measured here: OD600 growth;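 optical density of the mix in the first replicate; 0 = DMSO median and -100 = no signal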
# Ecoli rRNA inh RFP = also measured in Ecoli rRNA inh; calls as there; RFP signal change, %; measured here: RFP humanized mutant strains;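 first replicate; 0 = DMSO median and -100 = no signal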
# * hit, by the source's call; i = inactive; ? = inconclusive; . = not tested or not shown. Not all compounds are listed. The share of hits here may be higher or lower than overall.
# Each structure is followed by: MLL AF4-AF9 inh	T cruzi inh	Calb FLC	ALR inh	Ecoli rRNA inh	Ecoli rRNA inh OD600	Ecoli rRNA inh RFP	FGF22 binding	Beta cell apopt	RanGTP-Imp inh
1: COc1cc(NC(=O)COc2ccc(-n3cnnn3)cc2)c(OC)cc1Cl
 : .	-9.2	-1.9	-17.4	.	.	.	.	-16.5	?
2: C=CCOCCN1C(=O)C2C3C=CC(C2C1=O)C1C2C(=O)N(CCOCC=C)C(=O)C2C31 (stereo not drawn)
 : 2.3	-15.7	-1.7	-12.7	16.8	15.9	3.6	i	-3.0	1.5
3: CN(C)S(=O)(=O)Oc1ccccc1C(=O)Nc1ccc(F)cc1F
 : -1.4	-10.7	-7.8	-2.0	2.2	9.8	-0.8	i	-5.7	-1.1
4: O=C(Nc1ccccc1NC(=O)C1CCCO1)c1ccco1 (stereo not drawn)
 : -2.3	-2.5	-0.5	-3.2	18.8	9.0	-0.3	i	-5.6	6.3
5: COc1cccc(C(=O)/C=C/Nc2ccc(S(=O)(=O)Nc3ncccn3)cc2)c1
 : -86.4	-7.0	-3.5	.	10.3	1.2	-3.6	i	-3.4	-0.4
6: Cc1ccc(S(=O)(=O)c2c(C)nn(C(C)(C)C)c2OC(=O)c2cccs2)cc1
 : .	2.3	10.7	-2.6	.	.	.	.	-10.6	1.1
7: CC(NC(=O)C1CC12CCC2)c1ccccc1 (stereo not drawn)
 : -2.4	-0.9	-25.2	.	4.0	4.1	-1.6	i	-14.5	-2.5
8: Cc1ccc(C(=O)NC(=S)N2CC(C)OC(C)C2)cc1[N+](=O)[O-] (stereo not drawn)
 : 1.6	-1.6	10.4	4.9	6.9	10.4	-3.2	i	5.2	.
9: COc1ccc2oc(-c3cccc(NC(=O)CSc4ccc(Cl)cc4)c3)nc2c1
 : .	1.1	56.8	-8.1	.	.	.	.	-5.5	-1.3
10: COc1ccc(C(=O)N(C)C2CCCN(Cc3ccccc3F)C2)cc1C (stereo not drawn)
 : 1.0	1.0	11.5	.	-7.9	-6.3	-0.5	i	-0.8	9.4
11: NC(=O)CSc1nc2ccccc2c(=O)n1-c1ccccc1
 : 5.8	-3.5	6.3	-3.7	7.3	15.9	-0.3	i	-8.4	-6.6
12: COC(=O)c1cc(N=Nc2c(C)[nH]c3ccccc23)cc(C(=O)OC)c1
 : -10.0	-41.7	-1.7	-10.5	4.0	-5.6	-4.0	i	40.3	3.3
13: CCCCOC(=O)CSc1nnc(N)s1
 : .	.	-29.4	-4.4	.	.	.	.	-15.7	6.2
14: CCCN(CC(=O)Nc1ccccc1C)C(=O)c1cccc(S(=O)(=O)N2CCN(c3ccccc3)CC2)c1
 : ?	28.6	2.2	1.6	-2.0	3.1	1.2	i	4.2	.
15: O=[N+]([O-])c1ccc(O)c(/C=N/Nc2ccccn2)c1
 : 5.1	50.7	-5.8	.	-13.8	-19.9	-6.1	i	105.4*	-6.0
16: CCOC(=O)Cc1c(C)nc2c(-c3ccc(Cl)cc3)c(C)nn2c1C
 : -4.2	-11.4	42.9	-0.2	-5.8	-5.5	-0.6	i	14.9	0.2
17: CC12CCC(=O)N1C(C(=O)Nc1ccc(Cl)c(S(=O)(=O)N3CCCCC3)c1)CS2 (stereo not drawn)
 : 3.9	19.7	-3.4	.	-15.9	-19.6	-0.8	i	4.8	-4.7
18: C[C@@H](C(=O)N1CCNCC1)n1cc(CCCN=C(N)N)nn1
 : 0.4	-23.3	-10.2	-10.9	24.4	23.4	-6.6	i	-3.7	4.0
19: CC(C)CCNC(=O)c1cc2c(=O)[nH]c3ccccc3c2s1
 : -4.6	-23.7	-1.0	-2.4	9.6	3.0	2.2	i	6.1	-3.8
20: COc1ccc(NS(=O)(=O)c2ccc(NC(=S)NC(=O)c3cccc(F)c3)cc2)nn1
 : .	1.3	-2.7	29.6	.	.	.	.	2.7	-2.9
21: O=C(Cc1ccccc1)NNC(=O)C1CC=CCC1 (stereo not drawn)
 : -1.9	1.7	-0.6	1.6	3.8	7.6	-3.9	i	-5.4	7.8
22: Cc1nn(-c2ccccc2)c2sc(C(=O)N(CC(=O)NC(C)(C)C)Cc3ccco3)cc12
 : .	28.3	0.4	.	.	.	.	.	3.5	-1.3
23: CN(C)S(=O)(=O)c1ccc(NC(=O)N2CCOCC2)cc1
 : -0.1	-23.9	24.6	-9.1	6.9	9.0	-1.8	i	-3.2	5.4
24: CC1=CCC[C@@H]2[C@@](C)(CC/C(C)=C/C(=O)O)[C@H](C)CC[C@@]12C
 : 1.2	-10.3	6.9	.	-1.9	-17.4	3.2	i	-1.6	3.1
25: COc1cc(C2=NOC(C(=O)NCc3ccco3)C2)cc(OC)c1OC (stereo not drawn)
 : .	-30.6	-2.2	-57.7	.	.	.	.	2.4	3.8
26: CCC(C)N(C(=O)COC(=O)CNC(=O)c1ccccc1F)C1CCS(=O)(=O)C1 (stereo not drawn)
 : 1.1	-6.9	24.9	-2.3	11.5	1.9	-6.2	i	-7.7	3.6
27: Cc1ccc(OC(=O)c2ccc([N+](=O)[O-])cc2Cl)cn1
 : -2.1	-16.8	-6.4	21.6	1.3	15.7	0.1	i	-2.4	-1.2
28: COc1cccc(C2=NOC(C(=O)NCc3ccccn3)C2)c1 (stereo not drawn)
 : .	0.7	23.6	-6.1	.	.	.	.	-0.3	2.0
29: COc1ccc(C(=O)N(C)CCCC2CCCC2)cc1OC1CCN(C(C)C)CC1
 : 1.1	21.7	-3.2	2.3	-0.6	-5.6	-0.1	i	12.7	0.5
30: COC(=O)CN1C(=O)N/C(=C/c2cc(OC)c(OC)cc2C)C1=O
 : -0.2	-4.6	-3.2	2.6	12.9	12.8	2.0	i	-4.1	-2.5
31: CC(=O)c1ccc(OCC(=O)Nc2cccc(S(=O)(=O)N3CCCC3)c2)cc1
 : 1.3	.	.	-0.5	-6.4	-2.7	1.1	i	5.7	.
32: O=[N+]([O-])c1cc(-c2ccn[nH]2)ccc1Cl
 : 4.2	-3.6	-5.6	-24.1	-1.6	2.2	-4.0	.	-6.2	-0.7
33: CCN1C(=O)S/C(=C\c2ccc(N3CCOCC3)cc2C)C1=O
 : .	15.3	-8.9	.	.	.	.	.	-8.4	-4.0
34: Cc1ccc(C(=O)NC(=S)Nc2cc(C(F)(F)F)ccc2Cl)cc1
 : .	-16.2	-0.8	-3.6	.	.	.	.	5.2	6.2
35: Cc1ccc(S(=O)(=O)N2CCCN(S(=O)(=O)c3ccc(C)c(C)c3)CC2)cc1C
 : .	14.3	-30.5	-3.1	.	.	.	.	-6.8	-6.5
36: Cc1ccc(NC(=O)CCCOc2ccccc2)cc1S(=O)(=O)N1CCOCC1
 : -10.5	.	.	.	-17.3	-17.3	10.0	i	-2.3	.
37: CC(C)(C)CNC(=O)c1cccc2c1C(=O)c1ccc(-c3cc4ccccc4o3)cc1S2(=O)=O
 : -6.1	.	.	35.1	13.1	13.6	-5.9	i	-4.9	.
38: Cc1ccc(NCc2cccnc2)cc1
 : .	-9.2	2.3	12.4	.	.	.	.	-7.9	-6.8
39: C/C(CC(=O)Nc1ccc(C)c(Cl)c1)=N\NC(=O)Cc1cccs1
 : 2.2	-3.9	-16.7	-3.3	-2.9	-6.1	13.8	.	-2.9	-3.3
40: COc1ccccc1NC(=O)CC(NCc1ccccc1)C(=O)O (stereo not drawn)
 : -128.8	-15.0	41.6	-2.2	4.6	7.0	2.5	i	-1.5	-1.0
41: Cc1nn(Cc2ccc(Cl)cc2)c(C)c1NC(=O)C(c1ccccc1)c1ccccc1
 : 5.4	17.6	11.7	-3.1	-2.0	-7.2	2.4	i	-1.0	2.9
42: N#CCNC(=O)c1nn2c(C(F)(F)F)cc(-c3ccccc3)nc2c1Br
 : -1.5	-6.7	-4.6	-3.6	6.7	4.7	-0.3	i	.	3.6
43: O=C(C/C=N\OCc1ccc([N+](=O)[O-])cc1)Nc1ccccc1
 : -5.5	-8.0	4.9	-14.2	-1.8	4.5	3.3	i	-4.9	3.9
44: O=C1Cc2cc(S(=O)(=O)Nc3ccc(N4CCOCC4)cc3)ccc2N1
 : 5.3	.	.	?	12.4	18.1	-0.4	i	0.5	.
45: CC(=O)Oc1ccc(/C=C2/SC(=S)N(Cc3ccccc3)C2=O)cc1
 : -1.1	8.2	-5.0	-10.0	3.9	8.4	0.2	i	-6.8	-1.8
46: COCCCNC(=O)CN(Cc1ccc(Cl)cc1)S(C)(=O)=O
 : -12.7	2.8	9.8	-4.7	11.8	13.2	-2.1	i	-2.3	?
47: CCOc1ccc(-n2c(Cc3cc(=O)[nH]c(=O)[nH]3)nnc2SCC(=O)Nc2nnc(C)s2)cc1
 : 1.2	-18.3	?	-1.0	21.5	16.2	8.2	i	-7.2	-2.8
48: COC(=O)c1cccc(N(C(=O)CNC(=O)c2ccco2)C(C(=O)NC2CCCC2)c2ccco2)c1 (stereo not drawn)
 : .	-8.0	3.4	-12.3	.	.	.	.	.	-3.1
49: COc1ccc(OC)c(S(=O)(=O)Nc2cc(OC)c(Cl)cc2OC)c1
 : .	-4.6	-11.5	-1.0	.	.	.	.	-1.1	3.3
50: Cc1ccccc1NC(=S)NCc1ccc(F)cc1
 : 2.7	-8.2	-8.2	.	2.5	2.9	0.4	i	.	-2.3
51: Cc1ccc(NC2c3ncccc3C(=O)N2Cc2cccs2)cc1C (stereo not drawn)
 : 9.0	3.2	-5.9	49.6	2.5	-0.8	0.6	i	-0.8	4.8
52: COc1ccccc1OCC(=O)NCC(C)NC(=O)COc1ccccc1OC (stereo not drawn)
 : 3.9	-5.9	-4.8	.	5.5	0.5	0.5	i	.	1.2
53: O=C(N/C(=C/c1ccc(Br)cc1)C(=O)N1CCOCC1)c1ccc(Br)o1
 : 3.8	-1.0	-9.3	-26.2	0.4	-1.1	-3.0	i	1.6	-12.1
54: COc1ccc(/C=N/c2oc(-c3ccccc3)cc2C#N)cc1OC
 : .	-5.6	1.9	29.1	.	.	.	.	-5.5	3.0
55: COc1ccccc1-c1cc(N)n[nH]1
 : .	12.5	1.4	15.6	.	.	.	.	-4.3	5.1
56: O=C/C(=C\Nc1ccccn1)c1nc2ccccc2o1
 : .	-20.1	13.4	15.8	.	.	.	.	-18.0	12.3
57: COc1ccc(CNC(=O)C2CCN(S(=O)(=O)c3ccc4c(c3)NC(=O)C(C)S4)CC2)cc1 (stereo not drawn)
 : 0.4	-3.3	-26.2	-1.5	-12.8	-19.8	17.0	i	17.8	-3.1
58: CCOC(=O)CNc1cccc(C(F)(F)F)c1
 : -2.6	-15.2	6.3	1.9	24.2	23.1	-2.4	i	-2.4	0.0
59: O=C(Nc1ccc(Cl)cc1)Nc1ccccn1
 : -19.3	3.1	-1.1	-1.4	2.3	9.7	-0.5	i	8.1	0.3
60: Cc1nc(/N=C(\N)NC(=O)N2c3ccccc3Sc3ccccc32)nc2ccccc12
 : .	24.7	.	-2.8	.	.	.	.	4.6	-2.3
61: COc1ccc(Br)cc1C(=O)O
 : .	-5.3	-4.3	-6.1	.	.	.	.	1.1	?
